MARV entry inh: qHTS for inhibitors of binding or entry into cells for Marburg Virus | Potency, µM (titrated, usually from 37.8 µM), for inactives: at the highest dose activity change, negative = inhibition, hits mostly inhibitors | AID 540276, 2011 | Marburg virus pseudotyped entry inhibition, cell reporter; control for the full effect not named in the record; about a third of the inactives were read at about 46 µM | actives 1.8% (n = 300,000); active = well fitted inhibition curve with a large enough effect; inconclusive = small, poorly fitted or top-dose-only effect, or effect the other way; inactive = flat fitted curve, though single readings scatter; tested in HEK293 cells; about a fifth of its hits are not listed in these tables; further: on the % scale 0 is the no-effect control and ±100 the full control effect; luciferase read-out
NS1 inh: qHTS Assay for Inhibitors of Influenza NS1 Protein Function; S. cerevisiae slowed by influenza A NS1, growth recovery by OD600; actives 0.4% (n = 270,000); Potency, µM (series often up to 46.1 µM), without a hit: at the top dose activity, positive = more growth; further: actives are rising curves; nearly all actives have a fitted effect of over 50% in size
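A cell-based growth assay was used: compounds that relieve NS1-induced slow growth of budding yeast raise OD600. Assay medium was yeast nitrogen base with ammonium sulphate and -URA supplement, pH 6.0, with 2% galactose.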
LASV entry inh: qHTS for Inhibitors of binding or entry into cells for Lassa Virus | Lassa virus pseudotype entry inhibition, cell reporter; control for the full effect not named in the record | Potency, µM (doses to about 37.9 µM), without a hit: at the highest dose activity change, negative = inhibition, actives largely listed as inhibitors | actives 1.2% (n = 300,000); active means well fitted inhibition curve with a large enough effect; inconclusive means small, poorly fitted or top-dose-only effect, or effect the other way; inactive means flat fitted curve, though single readings scatter; tested in HEK293 cells; further: on the % scale 0 is the no-effect control and ±100 the full control effect; nearly all actives have a fitted effect of over 50% in size; luciferase read-out
SARS PLpro yeast: qHTS of Yeast-based Assay for SARS-CoV PLP; actives 0.19% (n = 330,000); S. cerevisiae expressing SARS-CoV PLpro, growth rescue; control for the full effect not named in the record; Potency, µM (doses to about 32.9 µM), without a hit: at the highest dose activity, positive = growth rescue; further: 0% is about no effect; nearly all actives have a fitted effect of over 55% in size; growth read by luminescence after 48 h
Cruzain Triton: qHTS Assay for Promiscuous and Specific Inhibitors of Cruzain (with detergent); Cruzipain (Trypanosoma cruzi), P25779; purified cruzain, Z-FR-AMC fluorescence, 0.01% Triton; Potency, µM, for the others: max response, negative = inhibition, usual class: inhibitors; actives 0.43% (n = 200,000); active means well fitted curve in the direction sought with a large enough effect; inconclusive means small, poorly fitted or top-dose-only effect, or another doubt; inactive means no such curve, though single readings can be large; an effect the other way counts as inactive or inconclusive;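 further: plate controls were neutral wells for no effect and buffer without enzyme for full effect; nearly all actives have a fitted effect of over 40% in size; top concentration of the series not given in the record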
Target sequence (P25779 123-467 limits assumed): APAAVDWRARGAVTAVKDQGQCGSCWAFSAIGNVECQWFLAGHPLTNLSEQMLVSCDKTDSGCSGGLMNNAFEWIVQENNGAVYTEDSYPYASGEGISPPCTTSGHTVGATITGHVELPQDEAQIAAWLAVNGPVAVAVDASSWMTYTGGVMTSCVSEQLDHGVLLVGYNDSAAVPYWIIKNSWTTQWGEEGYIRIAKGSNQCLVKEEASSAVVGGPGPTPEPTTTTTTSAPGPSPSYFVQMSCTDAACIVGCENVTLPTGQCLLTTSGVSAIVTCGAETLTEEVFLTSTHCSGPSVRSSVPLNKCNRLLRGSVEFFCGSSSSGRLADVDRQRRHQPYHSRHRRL
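In this qHTS format, compounds are incubated with 1.5 nM cruzain for 15 min at room temperature before 2 uM Z-FR-AMC is added. Release of AMC is followed at 360/450 nm, and progress is taken as the 60 s fluorescence difference.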
RE007 growth inh: qHTS Assay for Inhibitors of the HIV-1 protein Vpr. Potency, µM (series often up to 92.2 µM), inactives show at the highest dose activity change, negative = less growth. actives 0.21% (n = 360,000). S. pombe RE007 Vpr strain, BacTiter-Glo ATP luminescence, 24 h; control for the full effect not named in the record. AID 651644, 2012; active = well fitted falling curve with a large enough effect; inconclusive = small, poorly fitted or top-dose-only effect; inactive = no such curve, though single readings can be large or run the other way;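 further: on the % scale 0 is the no-effect control and ±100 the full control effect; nearly all actives have a fitted effect of over 50% in size; the assay follows cell death caused by Vpr and the record does not say whether a fall means rescue or toxicity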
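Fission yeast strain RE007, carrying one chromosomally integrated HIV-1 vpr copy, was seeded at OD 0.01 in PMG+AL medium with 23 nL pinned compound. After 24 h at 30 °C and 99% humidity, viability was read by BacTiter-Glo luminescence.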
StopGo reporter: High Throughput Screening for Foot and Mouth Disease Virus Antivirals; Potency, µM (highest dose often 57.9 µM), for inactives: top-dose signal change, negative = less light; AID 1159524, 2015; actives 1.2% (n = 410,000); human cells with a luciferase reporter of 2A StopGo recoding; control for the full effect not named in the record; active = well fitted falling curve with a large enough effect; inconclusive = small, poorly fitted or top-dose-only effect; inactive = no such curve, though single readings can be large or run the other way; tested in HEK293T cells; further: on the % scale 0 is the no-effect control and ±100 the full control effect; nearly all actives have a fitted effect of over 45% in size; luciferase light after 4 h
Cruzain noTriton: qHTS Assay for Promiscuous and Specific Inhibitors of Cruzain (without detergent); purified cruzain, Z-FR-AMC fluorescence, no detergent; Potency, µM, without a hit: max response, negative = inhibition, hits mostly inhibitors; actives 2.3% (n = 200,000); Cruzipain (Trypanosoma cruzi), P25779; active means well fitted curve in the direction sought with a large enough effect; inconclusive means small, poorly fitted or top-dose-only effect, or another doubt; inactive means no such curve, though single readings can be large; an effect the other way counts as inactive or inconclusive;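 further: plate controls were enzyme without inhibitor for no effect and buffer without enzyme for full effect; nearly all actives have a fitted effect of over 40% in size; top concentration of the series not given in the record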
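Detergent-free condition (0.00005% Triton X-100) in acetate buffer pH 5.5 with DTT. 1.5 nM enzyme and compound were pre-mixed 15 min, then 2 uM Z-FR-AMC substrate added; reaction progress from fluorescence change between first and third reads (60 s).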
* hit, by the source's call; ? = inconclusive; · = not tested or not shown; & = joins results of further samples; [ ] = another dose, or the depositor's remark. Unless noted, the call rests on the fitted dose curve; in most records, active means well fitted rising curve with a large enough effect; inconclusive means small, poorly fitted or top-dose-only effect; inactive means no such curve, though single readings can be large or run the other way. Potency means the concentration at half of the fitted maximal effect.

SMILES	MARV entry inh	NS1 inh	LASV entry inh	SARS PLpro yeast	Cruzain Triton	RE007 growth inh	StopGo reporter	Cruzain noTriton
CCOc1ccc(C2c3[nH]c4ccccc4c3C[C@H]3C(=O)N(C4CC4)CC(=O)N23)cc1OC (stereo partly specified)	·	0.0%	·	2.8%	·	-8.1%	-7.2%	·
CCN(CC)c1ccc(/C=C2\C(=N)N3N=C(CC(=O)N4CCOCC4)SC3=NC2=O)cc1	·	17.3%	·	-3.8%	·	0.5%	6.8%	·
CCc1ccc(NC(=O)CN2C(=O)C3(SCC(=O)N3c3ccc(F)c(F)c3)c3ccccc32)cc1 (stereo unspecified)	·	·	?	·	-3.2%	·	0.0%	?
OC(COc1ccc2c(c1)CCC2)CN1CCN(c2cccc(Cl)c2)CC1 (stereo unspecified)	-7.6%	-9.0%	-14.5%	-16.1%	-5.0%	7.1%	?	1.5%
CCCSc1cc(N2CCCC2)nc(-c2ccccc2)n1	-4.4%	0.1%	9.4%	1.5%	-3.6%	-4.1%	-3.8%	-7.6%
COC(=O)c1cc(NC(=O)c2cc(-c3ccccc3Cl)oc2C(F)(F)F)ccc1N1CCOCC1	·	15.2%	·	0.6%	·	-5.0%	-20.5%	·
COc1ccc(/C=C/c2nc3ccccc3n2Cc2ccccc2OC)cc1	?	-10.6%	?	-29.4%	-5.6%	-6.9%	-26.6%	?
CC(C)c1ccc(NC(=O)c2csnn2)cc1	?	-6.1%	9.2µM*	-2.6%	2.6%	11.4%	-2.2%	1.6%
COc1ccc(OC)c(NC(=O)NNC(=O)CCCOc2ccc(Cl)cc2C)c1	-7.5%[46.1 µM]	1.4%	-10.7%	0.9%	·	2.9%	-11.6%	·
CCCCN1C(=O)CN(CCc2ccccc2)C(=O)C1c1ccc(OC)cc1 (stereo unspecified)	13.0%	-0.7%	5.2%	0.6%	3.2%	2.5%	-20.9%	4.7%
O=C(Cc1ccccc1)N1CCN(Cc2ccc(Cl)cc2)CC1	-6.4%[46.1 µM]	·	-13.9%[46.1 µM]	·	·	-1.2%	?	·
Cc1ccc(C(=O)N/C(=C\c2ccccc2)C(=O)NCc2ccncc2)cc1	-11.6%[46.1 µM]	14.6%	0.8%	-0.9%	-0.5%	-27.4%	8.7%	?
O=C(COc1ccccc1)N(Cc1ccco1)C1CCS(=O)(=O)C1 (stereo unspecified)	-0.8%	0.7%	0.5%	0.3%	-11.1%	-0.5%	·	2.1%
COc1ccc(C2CC(c3ccccc3OC(=O)/C=C/c3ccccc3)=NN2C(C)=O)cc1 (stereo unspecified)	·	2.5%	·	0.3%	·	21.3%	-0.3%	·
COc1cc(C(c2sc3nc(C)nn3c2O)N2CC(C)OC(C)C2)cc(OC)c1OC (stereo unspecified)	0.0%	-132.1%	·	2.8%	-2.1%	3.5%	-17.8%	3.6%
O=C(O)c1ccc(-n2nnnc2SCc2ccccc2F)cc1	-2.3%	-79.7%	·	0.8%	2.6%	-7.4%	-5.7%	-4.5%
CCOc1ccc(N)cc1	·	·	·	·	2.1%	?	-8.5%	-0.5%
CCOC(=O)C(CC)Sc1ncnc2c1nnn2-c1ccc(F)cc1 (stereo unspecified)	-10.4%	-3.8%	-15.2%	-9.2%	12.8%	-3.9%	-19.1%	10.7%
CCCCNC(=O)CCC1N=C2c3ccccc3N=C(SCC(=O)NCCc3ccc(OC)c(OC)c3)N2C1=O (stereo unspecified)	·	·	?	·	0.4%	·	2.1%	6.9%
Cc1ccc(NS(=O)(=O)c2ccc(N3CCN(c4ccc(O)cc4)CC3)c([N+](=O)[O-])c2)c(C)c1	2.82µM*	16.4%	-63.2%	-63.9%	-7.6%	-2.4%	28.2µM*	-27.1%
COc1ccccc1N1CCN(C(CNC(=O)Oc2ccccc2)c2cccnc2)CC1 (stereo unspecified)	?	-13.9%	-4.1%	-2.5%	2.9%	-1.9%	?	7.1%
COc1ccc(N(CC(=O)Nc2cccc(C(F)(F)F)c2)S(=O)(=O)c2c(C)[nH]c(=O)[nH]c2=O)cc1	-19.8%[46.1 µM]	16.8%	12.9%[46.1 µM]	-3.7%	·	-4.8%	-16.2%	·
Cc1csc(NC(=O)CSc2ccc(-c3ccccc3)nn2)n1	?	·	?	-3.1%	·	1.5%	?	·
CCCCn1c(N)c(N(CCOC)C(=O)C2CCN(S(=O)(=O)c3ccc(C)cc3C)CC2)c(=O)[nH]c1=O	17.1%	·	9.0%	1.3%	·	2.1%	-9.9%	·
CCCOC(=O)c1cccc(Nc2nc(C(=O)OCC)nc3ccccc23)c1	-27.8%[46.1 µM]	·	-17.8%[46.1 µM]	·	-15.9%	·	-12.3%	?

More compounds follow.
SMILES	MARV entry inh	NS1 inh	LASV entry inh	SARS PLpro yeast	Cruzain Triton	RE007 growth inh	StopGo reporter	Cruzain noTriton
Nc1nnnn1CC(=O)N/N=C/c1cc([N+](=O)[O-])ccc1O	?	12.2%	-9.5%	-0.1%	·	-17.7%	0.2%	·
CC(C)Oc1ccc(CNC(=O)CN2C(=O)CCn3nc(-c4cn(C)c5ccccc45)cc32)cc1	·	·	4.7%[46.1 µM]	·	0.8%	·	-6.5%	-13.0%
O=C(NCc1ccc(F)cc1)N1CCc2ccccc2C1	15.2%[46.1 µM]	-7.9%	0.9%	-4.2%	·	28.5%	35.7%[activator]	·
O=C(Nc1ccc(Cl)c(Cl)c1)N(CCCN1CCOCC1)Cc1cccs1	·	-1.2%	·	3.9%	2.0%	-6.0%	-19.0%	9.8%
O=C(CN1C(=O)c2ccccc2S1(=O)=O)Nc1cc(S(=O)(=O)N2CCCCC2)ccc1Cl	?	·	-5.1%	1.8%	·	-14.8%	-2.3%	·
CN(C)S(=O)(=O)n1cnc(-c2ccccc2)c1-c1ccccc1	1.2%	-15.1%	-13.1%	2.3%	9.1%	13.0%	-16.2%	-11.2%
CCn1c2ccccc2c2nnc(N3CCN(c4ccc(OC)cc4)CC3)nc21	·	·	-12.0%[46.1 µM]	·	-1.0%	·	-15.9%	-0.4%
COc1ccc(Cn2c(SCC(=O)N(C)Cc3ccccc3)nc3ccccc32)cc1	·	·	-0.8%[46.1 µM]	·	-4.0%	·	19.2%	10.5%
N#CCSc1ncnc2sc3c(c12)CCC3	?	1.9%	4.6%	0.3%	-1.4%	6.9%	-21.6%	-15.1%
Cc1ccc(N=C2NC(=O)/C(=C\c3ccsc3)S2)c(C)c1	-23.1%	10.3%	?	-106.5%	-15.1%	-20.5%	4.4%	-2.5%
CC1(C)CC2CC(C)(CN2C(=O)COC(=O)c2n[nH]c(=O)c3ccccc23)C1 (stereo unspecified)	?	-6.2%	-1.6%	-11.1%	0.5%	8.4%	-21.9%	-3.9%
Cc1ccccc1Nc1cccc2nonc12	-4.5%	-3.7%	0.5%	-7.9%	-5.4%	-28.5%	-21.0%	3.9%
CC1CCN(S(=O)(=O)c2cc(F)ccc2CN2C(=O)c3cccnc3C2=O)CC1	·	-10.3%	·	-2.0%	·	-15.8%	-11.4%	·
CCOC(=O)c1cnc2ccc(OCC)cc2c1NCCCN1CCOCC1	·	-0.7%	·	4.9%	·	-13.7%	-4.7%	·
CC(=O)N/N=C/c1ccc(OCCOc2ccc(Br)cc2)cc1	17.5%	5.8%	5.6%	12.4%	-0.5%	4.1%	0.9%	-7.0%
CN=C1SC(C(=O)Nc2ccccc2Cl)CC(=O)N1c1ccc(OC(F)(F)Cl)cc1 (stereo unspecified)	?	·	·	1.9%	·	15.4%	-4.2%	·
CC(C)C[C@H]1CN=C(Nc2ccccc2)N1CC1CCC(C)CC1 (stereo partly specified)	·	-0.2%	·	-0.9%	·	-0.8%	-28.1%	·
Cc1cccn2cc(CNS(=O)(=O)c3cccc(F)c3)nc12	·	-9.0%	·	?	0.6%	-10.0%	0.0%	1.1%
Cc1nc2ccccc2nc1SCC(=O)c1ccccc1	?	-6.2%	-16.8%	10.3%	-2.7%	1.5%	-23.4%	1.6%
COc1cc2c(cc1OC)C(COc1ccccc1OC)N(C(=O)C(C)(C)C)CC2 (stereo unspecified)	-12.3%[46.1 µM]	2.5%	?	1.7%	·	13.5%	-22.9%	·
Fc1ccc(-c2noc3ncnc(NCCc4ccccc4)c23)cc1	·	·	2.2%[46.1 µM]	·	-0.7%	·	?	2.1%
O=C(Nc1ccccc1)c1cc(N2CCOCC2)nc2ccccc12	?	8.2%	0.1%	5.1%	6.8%	-3.0%	-28.9%	0.2%
O=C(c1cc2ccccc2oc1=O)N1CCN(c2ccc(Cl)cc2)CC1	8.9%[46.1 µM]	·	6.4%[46.1 µM]	·	-6.0%	·	-19.0%	8.3%
Cc1cc(Cl)ccc1OC(C)C(=O)NCCCn1ccnc1 (stereo unspecified)	1.9%[46.1 µM]	·	·	4.0%	·	-1.8%	-11.6%	·
COc1ccc(N2CCN(C(=O)c3ccc(NS(=O)(=O)c4ccc(F)cc4)cc3)CC2)cc1	4.6%	1.8%	-2.1%	-2.2%	-2.5%	?	26.3%	1.7%
CCOC(=O)c1[nH]c2ccccc2c1NC(=O)CC(C)(C)C	·	0.0%	·	-6.5%	-7.2%	0.4%	-8.3%	-5.8%
OCCCNC(c1ccccc1)c1ccc(O)cc1 (stereo unspecified)	-6.2%	1.2%	10.1%	-6.3%	-1.8%	-16.0%	-8.9%	-7.0%
NCCCN1CCN(c2ccccc2)CC1	-11.2%&-11.2%&-11.2%[46.1 µM]	-0.3%&3.4%	24.2%	0.6%	3.9%	-4.8%	-8.5%	2.6%
COc1ccc(C(=O)OCC(=O)NCc2ccco2)cc1OC	4.9%	2.1%	-9.4%	-10.6%	-1.1%	-2.8%	-14.1%	-9.6%
